PABP polyA inh – PABP-poly(A) binding inhibition; P11940; AID 2014; inhibition, % at 35 µM; hit rate 1% among 290,000; PABP-poly(A) RNA binding, fluorescence polarization;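 active = 50% or more with normal probe brightness, or confirmed in later tests; about a fifth of its hits are not listed in these tables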;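 note: calls also rest on retests at 20 µM and on dose response follow-up; controls were probe without protein and protein plus probe with vehicle; some compounds called inactive have numbers as strong as hits; many hits fall short of the cut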
eIF4H FP inh – inhibitors of RNA binding by human eIF4H; Q15056; hit rate 0.94% among 290,000; inhibition, % at 35 µM; eIF4H fluorescence polarization binding assay;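 active = 50% or more with normal probe brightness, or confirmed in later tests; about a fifth of its hits are not listed in these tables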;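 note: calls also rest on retests at 20 µM and on dose response follow-up; 0% = protein and probe with vehicle and 100% = probe without protein; strong numbers were not always called active; many hits fall short of the cut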
MT1-MMP act inh – blocks activation of human MT1-MMP; P50281; hit rate 0.061% among 360,000; HT1080 RFP-PRO-GFP cells, GFP/RFP ratio fluorescence, overnight; percent of plate control window, DMSO zero; AID 651647; GFP/RFP ratio change, % at 20 µM;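 active = GFP/RFP ratio change of at least 30% with cell ATP level not reduced by more than half and red fluorescence within 50% of control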; note: strong numbers were not always called active
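Assay system: HT1080 RFP-PRO-GFP cells. Benchmarks: DMSO vehicle wells and RFP-L50D-GFP reporter cell wells. Times: overnight cell settling, then overnight compound exposure, 37 °C, 5% CO2. Compound: 20 µM single dose, 1% DMSO. Read-out basis: GFP/RFP fluorescence ratio.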
Yeast UUG start – yeast start codon fidelity modulation; activity score, % at 18.7 µM; S. cerevisiae UUG-firefly luciferase reporter, luminescence/redox ratio; hit rate 0.13% among 350,000; AID 602363;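 active = replicate mean at a twofold rise or more, about +100% in these data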;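 note: firefly luciferase made from a UUG start codon reports start codon fidelity; reporter light over untreated wells divided by growth signal over untreated wells; some hits fall short of that in this replicate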
Env fusion inh – blocks HIV Env-driven cell-cell fusion; HeLa-JRFL Env/CEM21 cell fusion, luciferase; inhibition, % at 12.3 µM; hit rate 1.1% among 360,000; AID 651610;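 active = mean replicate inhibition score of at least 50 and every replicate individually at or above 50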;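 note: 0% = plate neutral controls and 100% = maraviroc near 300 nM; one replicate is shown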
Rce1 inhib – inhibitors of yeast Ras-converting enzyme | calls only | hit rate 0.27% among 290,000 | AID 2563 | Q03530 | yeast membranes, quenched prenylated peptide cleavage fluorescence;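 active = fall in fluorescence gain of 50% or more versus controls, with final raw signal at or below 3038400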;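 note: plate controls were neutral control wells for no effect and wells lacking membranes for full effect; tested at 10 µM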
Target sequence (Q03530 whole entry, looked up): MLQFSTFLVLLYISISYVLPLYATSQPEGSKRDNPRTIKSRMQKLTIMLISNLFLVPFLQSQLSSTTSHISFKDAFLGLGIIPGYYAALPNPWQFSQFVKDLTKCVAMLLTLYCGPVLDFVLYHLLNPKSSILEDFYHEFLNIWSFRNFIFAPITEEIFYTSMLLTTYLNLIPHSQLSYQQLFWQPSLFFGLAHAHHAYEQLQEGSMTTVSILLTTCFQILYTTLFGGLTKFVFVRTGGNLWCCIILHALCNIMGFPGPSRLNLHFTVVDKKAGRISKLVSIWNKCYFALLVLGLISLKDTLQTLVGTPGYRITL
CSC inhib – cancer stem cell inhibition; hit rate 1.1% among 300,000; inhibition, % at 7.5 µM; cancer stem cell-like cells viability, luminescence;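 active = mean at 75% or more and at least half the replicates too; tested in HMLE shEcad cells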;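 note: 0% = median of negative and 100% = median of positive control wells; the first replicate is given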
MT1-MMP act inh RFP – second read-out of MT1-MMP act inh, no call of its own (marks repeat the call); RFP signal change, %; measured here: RFP expression control read;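 0 = vehicle wells; hits needed this value within 50% of zero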
* = called active by the depositor; i = inactive; . = no result given. Only part of the results is shown (hit frequency here may not be typical).

Letter code – A = PABP polyA inh; B = eIF4H FP inh; C = MT1-MMP act inh; D = MT1-MMP act inh RFP; E = Yeast UUG start; F = Env fusion inh; G = Rce1 inhib; H = CSC inhib
1. O=S(=O)(c1ccc(NC2CCCCC2)cc1)N1CCOCC1
  A = -5	B = -2	C = 2	D = -12	E = -6	F = .	G = i	H = -8

2. COC(=O)c1cc(C)nc(Nc2nc(C(N)Cc3ccc(Cl)cc3)cs2)n1 (stereo not given)
  A = .	B = .	C = -1	D = 0	E = -24	F = -3	G = .	H = .

3. Cc1ccc(C(=O)NCC(=O)NC23CC4CC(CC(C4)C2)C3)cc1
  A = -7	B = -8	C = 2	D = 0	E = -12	F = -29	G = i	H = .

4. CCOC(=O)c1ccc(NC(=O)c2nc[nH]c2C(=O)N2CCC(C)CC2)cc1
  A = 8	B = 2	C = 1	D = -2	E = -13	F = 4	G = i	H = 14

5. CC1(C)C2CCC1(C)C(NC(=O)/C=C/c1ccccc1)C2 (stereo not given)
  A = -6	B = -9	C = -3	D = -7	E = .	F = 10	G = i	H = -15

6. CN(C(=O)COC(=O)c1ccc(-c2ccc(O)cc2)cc1)C1CCS(=O)(=O)C1 (stereo not given)
  A = 8	B = 17	C = 3	D = 7	E = -9	F = -2	G = i	H = 11

7. CCOC1=NC(=C(c2ccccc2)c2ccccc2)OC1=O
  A = .	B = .	C = -1	D = 1	E = -21	F = -7	G = .	H = .

8. Cc1cccn2c(=O)c3cc(C(=O)NCCCOC(C)C)sc3nc12
  A = -3	B = 1	C = 0	D = 5	E = 4	F = -2	G = i	H = -2

9. CC1C(=O)N(Cc2cccc(F)c2)c2ccccc2N1C(=O)c1ccccc1 (stereo not given)
  A = 2	B = 2	C = -1	D = -19	E = -6	F = 25	G = i	H = -5

10. CC(=O)Nc1cccc(NC(=O)C2CCCN2C(=O)Nc2ccc(C)cc2)c1 (stereo not given)
  A = 8	B = 1	C = 8	D = 9	E = -11	F = -10	G = i	H = -6

11. COc1cccc(CC(=O)Nc2nc(-c3ccc(F)c(F)c3)cs2)c1
  A = 4	B = 12	C = 0	D = 2	E = 1	F = -4	G = i	H = 7

12. CC(C)N1C(=O)S/C(=C/c2cccnc2)C1=O
  A = 9	B = -3	C = 1	D = -3	E = -19	F = -68	G = i	H = -8

13. CC(=O)c1c(O)c2ccccc2n(C2CCCCC2)c1=O
  A = 8	B = 15	C = -7	D = -1	E = -19	F = 24	G = i	H = 7

14. Cc1cc(=O)[nH]c(SCC(=O)NN(c2ccccc2)c2ccccc2)n1
  A = 6	B = -3	C = -1	D = 3	E = -6	F = 8	G = i	H = -10

15. O=C(Nc1cnn(Cc2ccc(Cl)c(Cl)c2)c1)C12CC3CC(CC(C3)C1)C2
  A = 6	B = 14	C = -1	D = -10	E = -16	F = 20	G = .	H = 36

New compounds follow.
entry | mol | PABP polyA inh | eIF4H FP inh | MT1-MMP act inh | MT1-MMP act inh RFP | Yeast UUG start | Env fusion inh | Rce1 inhib | CSC inhib
16 | COc1ccccc1C(=O)NCC1(c2ccccc2)CCCC1 | -2 | -7 | -11 | -6 | . | 30 | i | 36
17 | COc1cc(OC)c2ccc(=O)oc2c1C(CC(=O)N1CCCC1)c1ccc2c(c1)OCO2 (stereo not given) | 51* | 82* | -18 | -10 | -11 | 13 | i | 8
18 | Cc1cc(=O)oc2cc(OCC(=O)NCCCn3ccnc3)ccc12 | 6 | 10 | 2 | 2 | -17 | 1 | i | -11
19 | COc1ccccc1NC(=O)/C=C/c1ccc(OC)c(S(=O)(=O)N2CCOCC2)c1 | -3 | -5 | -3 | -6 | 4 | 25 | i | -1
20 | O=C(Nc1ccc(C(=O)N2CCOCC2)cc1)c1ccc([N+](=O)[O-])cc1 | 5 | -16 | 2 | 1 | -5 | 15 | i | -1
21 | CN1CCC(N(C)S(=O)(=O)c2ccc(F)cc2F)CC1 | -3 | 1 | 1 | 0 | 0 | -19 | . | -18
22 | Oc1ccccc1-c1nnc(COc2ccccc2)o1 | -1 | -1 | 5 | 6 | -15 | -51 | i | 2
23 | C=CC[C@@H](CC(=O)NCCO)C(=O)N[C@@H](COC(=O)[C@@H](CC=C)CC(=O)OC(C)(C)C)Cc1c[nH]c2ccccc12 | . | . | -4 | -1 | -4 | -122 | . | .
24 | O=C(Nc1ccc(-c2ccc([N+](=O)[O-])cc2)cc1)c1ccccc1F | 9 | 9 | 2 | -3 | . | -10 | i | -2
25 | CCOc1cc(/C=N/NC(=O)COc2cccc(C)c2)ccc1OC(=O)c1cccs1 | 9 | 0 | 6 | 3 | -10 | . | i | 21
26 | COc1cccc(NC(=O)CN(C)C(=O)c2cc(S(=O)(=O)N3CCCCCC3)ccc2OC)c1 | . | . | 5 | -1 | 14 | 37 | . | -8
27 | C/C(=N\NC(=O)c1ccccc1)c1cc2cc([N+](=O)[O-])ccc2oc1=O | -12 | 10 | 1 | 1 | . | 8 | . | 8
28 | Cc1oc(-c2ccc(Cl)cc2)nc1CN1CCCC(C(=O)NC2CC2)C1 (stereo not given) | -8 | -4 | 1 | -4 | 1 | 27 | i | -16
29 | Cn1[nH]c(=O)c(Cl)c(Cl)c1=O | -2 | -13 | 0 | 0 | -7 | . | i | .
30 | Cc1n[nH]c(C)c1S(=O)(=O)N1CCCC(C(=O)Nc2nccs2)C1 (stereo not given) | -6 | -1 | -1 | -1 | -19 | 12 | i | -12
31 | CCCCCCCC(=O)OCC(COC(=O)CCCCCCC)OC(=O)CCCCCCC | . | . | 3 | 6 | 6 | . | . | -16
32 | Cn1cccc1CNCc1ccccc1Cl | 3 | 1 | 8 | 1 | -2 | -54 | i | -12

Screening results (PubChem BioAssay)
